Screens deposited in PubChem BioAssay by National Center for Advancing Translational Sciences (NCATS).
2A StopGo – lowers the luciferase signal of an FMDV 2A StopGo reporter; actives 1.2% (n = 410,000); human cells with a luciferase reporter of 2A StopGo recoding; control for the full effect not named in the record; Potency, µM (top dose mostly 57.9 µM), for the others: at the highest dose signal change, negative = less light; active = well fitted falling curve with a large enough effect; inconclusive = small, poorly fitted or top-dose-only effect; inactive = no such curve, though single readings can be large or run the other way; tested in HEK293T cells; note: % is set by controls: 0 for no effect and ±100 for the full control effect; nearly all actives have a fitted effect of over 45% in size; luciferase light after 4 h
RE007 growth inh – less growth of the S. pombe RE007 Vpr strain | actives 0.21% (n = 360,000) | AID 651644 | Potency, µM (titrated, usually from 92.2 µM), for the others: at the top dose activity change, negative = less growth | S. pombe RE007 Vpr strain, BacTiter-Glo ATP luminescence, 24 h; control for the full effect not named in the record; active = well fitted falling curve with a large enough effect; inconclusive = small, poorly fitted or top-dose-only effect; inactive = no such curve, though single readings can be large or run the other way;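 note: % is set by controls: 0 for no effect and ±100 for the full control effect; nearly all actives have a fitted effect of over 50% in size; the assay follows cell death caused by Vpr and the record does not say whether a fall means rescue or toxicity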
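Fission yeast RE007 carrying one integrated HIV-1 vpr copy, seeded at OD 0.01 in PMG+AL medium with 23 nL pinned compound. Grown 24 h at 30 degrees; viability read by BacTiter-Glo luminescence after 5 min.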
LASV entry inh – inhibitors of Lassa virus binding or cell entry; Lassa virus pseudotype entry inhibition, cell reporter; control for the full effect not named in the record; Potency, µM (doses to about 37.9 µM), without a hit: at the highest dose activity change, negative = inhibition, usual class: inhibitors; actives 1.2% (n = 300,000); AID 540256; active means well fitted inhibition curve with a large enough effect; inconclusive means small, poorly fitted or top-dose-only effect, or effect the other way; inactive means flat fitted curve, though single readings scatter; tested in HEK293 cells; note: % is set by controls: 0 for no effect and ±100 for the full control effect; nearly all actives have a fitted effect of over 50% in size; luciferase read-out
NS1 function inh – inhibitors of influenza NS1 protein function. S. cerevisiae slowed by influenza A NS1, growth recovery by OD600. Potency, µM (titrated, usually from 46.1 µM), for the others: at the highest dose activity, positive = more growth. actives 0.4% (n = 270,000). AID 2326; active means well fitted rising curve with a large enough effect; inconclusive means small, poorly fitted or top-dose-only effect; inactive means no such curve, though single readings can be large or run the other way; note: nearly all actives have a fitted effect of over 50% in size
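In this qHTS, NS1 from influenza A is expressed in budding yeast, where it slows growth. Cells are switched from glucose to 2% galactose medium (pH 6.0, -URA), treated with compound, and growth recovery is read at OD600.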
Cruzain inh Det – inhibitors of Trypanosoma cruzi cruzain with detergent; purified cruzain, Z-FR-AMC fluorescence, 0.01% Triton; Potency, µM, for inactives: max response, negative = inhibition, actives largely listed as inhibitors; actives 0.43% (n = 200,000);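 note: plate controls were neutral wells for no effect and buffer without enzyme for full effect; nearly all actives have a fitted effect of over 40% in size; top concentration of the series not given in the record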
Target sequence (P25779 123-467 limits assumed): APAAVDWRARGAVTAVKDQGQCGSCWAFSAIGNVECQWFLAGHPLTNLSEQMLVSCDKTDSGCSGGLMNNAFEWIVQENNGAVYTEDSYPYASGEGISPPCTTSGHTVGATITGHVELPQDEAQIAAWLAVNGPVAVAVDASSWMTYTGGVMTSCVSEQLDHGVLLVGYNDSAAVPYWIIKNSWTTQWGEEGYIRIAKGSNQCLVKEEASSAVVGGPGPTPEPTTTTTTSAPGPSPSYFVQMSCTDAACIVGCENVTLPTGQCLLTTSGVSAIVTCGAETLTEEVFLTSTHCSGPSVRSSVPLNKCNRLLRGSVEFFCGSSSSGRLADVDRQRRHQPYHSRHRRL
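Purified cruzain (1.5 nM final) was preincubated with compounds for 15 min at room temperature in 100 mM sodium acetate pH 5.5, 5 mM DTT, 0.01% Triton X-100. Reaction started with 2 uM Z-FR-AMC; AMC fluorescence change over 60 s gave activity.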
Cruzain noTriton – cruzain (T. cruzi) inhibition without detergent. P25779. purified cruzain, Z-FR-AMC fluorescence, no detergent. Potency, µM, without a hit: max response, negative = inhibition, most hits filed as inhibitors. actives 2.3% (n = 200,000);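 note: plate controls were enzyme without inhibitor for no effect and buffer without enzyme for full effect; nearly all actives have a fitted effect of over 40% in size; top concentration of the series not given in the record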
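Detergent-free condition (0.00005% Triton X-100) in acetate buffer pH 5.5 with DTT. 1.5 nM enzyme and compound were pre-mixed 15 min, then 2 uM Z-FR-AMC substrate added; reaction progress from fluorescence change between first and third reads (60 s).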
Marburg entry inh – Marburg virus entry inhibition. Marburg virus pseudotyped entry inhibition, cell reporter; control for the full effect not named in the record; about a third of the inactives were read at about 46 µM. Potency, µM (highest dose often 37.8 µM), for the others: at the top dose activity change, negative = inhibition, most hits filed as inhibitors. actives 1.8% (n = 300,000); active = well fitted inhibition curve with a large enough effect; inconclusive = small, poorly fitted or top-dose-only effect, or effect the other way; inactive = flat fitted curve, though single readings scatter; tested in HEK293 cells; about a fifth of its hits are not listed in these tables; note: % is set by controls: 0 for no effect and ±100 for the full control effect; luciferase read-out
SARS PLpro yeast – blocks SARS-CoV papain-like protease in a yeast assay; Potency, µM (titrated, usually from 32.9 µM), for the others: at the highest dose activity, positive = growth rescue; actives 0.19% (n = 330,000); AID 485353; S. cerevisiae expressing SARS-CoV PLpro, growth rescue; control for the full effect not named in the record; active means well fitted rising curve with a large enough effect; inconclusive means small, poorly fitted or top-dose-only effect; inactive means no such curve, though single readings can be large or run the other way; note: 0% is about no effect; nearly all actives have a fitted effect of over 55% in size; growth read by luminescence after 48 h
Numbers without * were called inactive; [ ] = dose if it differs, or a comment. Unless noted, calls come from the whole dose curve; as a rule, active = well fitted curve in the direction sought with a large enough effect; inconclusive = small, poorly fitted or top-dose-only effect, or another doubt; inactive = no such curve, though single readings can be large; an effect the other way counts as inactive or inconclusive. Potency is the fitted concentration of half-maximal effect.

What do the screens show for `CCC(=O)N1CN(S(=O)(=O)c2ccc(C)cc2)CC1C` (stereo not given)?
2A StopGo: 11.9%; RE007 growth inh: -3.9%; LASV entry inh: 0.7%; NS1 function inh: -3.2%; Cruzain inh Det: 10.1%; Cruzain noTriton: -1.8%; Marburg entry inh: 12.5%; SARS PLpro yeast: 8.7%

How did Cc1ccc(N(CC(=O)NCC2CCCO2)S(=O)(=O)c2ccc(Cl)cc2)cc1C (stereo not given) do in these assays?
2A StopGo: -11.7%; RE007 growth inh: 2.5%; NS1 function inh: -12.6%; SARS PLpro yeast: 3.8%

What do the screens show for `CCCCCN(C(=O)CSc1n[nH]c(-c2ccc(C)cc2)n1)c1c(N)n(CCCC)c(=O)[nH]c1=O`?
2A StopGo: 22.6%; RE007 growth inh: -17.1%; LASV entry inh: -14.7%; Marburg entry inh: -1.2%; SARS PLpro yeast: -5.1%

Results for Cn1nc(C(=O)NCCc2ccc(S(N)(=O)=O)cc2)c2c1-c1ccccc1S(=O)(=O)C2 ?
2A StopGo: -12.4%; RE007 growth inh: 2.0%; NS1 function inh: -6.8%; SARS PLpro yeast: -4.3%

Results for CCC1(c2ccc(C)cc2)NC(=O)N(C(C)C(=O)Nc2ccc(N3CCOCC3)cc2)C1=O (stereo not given) ?
2A StopGo: 8.3%; RE007 growth inh: 18.7%; LASV entry inh: 9.8%; Marburg entry inh: 1.1%; SARS PLpro yeast: -6.7%

What do the screens show for `CS(=O)(=O)c1ccc(Cl)c(NC(=O)c2cc(S(=O)(=O)N3CCOCC3)ccc2N2CCCC2)c1`?
2A StopGo: -11.9%; RE007 growth inh: -2.4%; LASV entry inh: -1.4%; Marburg entry inh: -1.7%; SARS PLpro yeast: 1.1%

How did Cc1cc(C)c(NC(=O)COC(=O)C2=COCCO2)c(Cl)c1 do in these assays?
2A StopGo: -10.2%; RE007 growth inh: 4.9%; LASV entry inh: -1.0%; Marburg entry inh: 4.0%

What do the screens show for `Cc1cc(NC(=S)N(CCCN2CCOCC2)Cc2ccco2)ccc1Cl`?
2A StopGo: 6.2%; RE007 growth inh: -8.1%; LASV entry inh: inconclusive; NS1 function inh: 2.5%; Cruzain inh Det: -0.7%; Cruzain noTriton: 1.2%; Marburg entry inh: inconclusive; SARS PLpro yeast: -10.6%

How did COc1cc(C)c(NC(=O)c2cccc(S(=O)(=O)N3CCCC3)c2)cc1OC do in these assays?
2A StopGo: 2.5%; RE007 growth inh: -26.4%; LASV entry inh: -1.7%[46.1 µM]; Marburg entry inh: 4.4%[46.1 µM]; SARS PLpro yeast: -1.3%

What do the screens show for `O=C(N/N=C/c1ccc([N+](=O)[O-])cc1)c1cccc(N2CCCC2=O)c1`?
2A StopGo: -18.4%; RE007 growth inh: -8.4%; LASV entry inh: 3.0%; NS1 function inh: -2.3%; Marburg entry inh: 8.1%; SARS PLpro yeast: -4.4%

What do the screens show for `COc1ccc(Br)cc1CN1CCCC(C(=O)N2CCCCC2)C1` (stereo not given)?
2A StopGo: -20.3%; RE007 growth inh: 6.2%; LASV entry inh: inconclusive; NS1 function inh: -8.2%; Cruzain inh Det: 2.6%; Cruzain noTriton: -5.2%; Marburg entry inh: inconclusive; SARS PLpro yeast: 12.7%

How did COc1ccc(OC)c(S(=O)(=O)Nc2ccccc2SC)c1 do in these assays?
2A StopGo: 32.7%[activator]; RE007 growth inh: -3.5%; LASV entry inh: -2.1%; NS1 function inh: -6.9%; Cruzain inh Det: -3.5%; Cruzain noTriton: -11.6%; Marburg entry inh: -1.5%; SARS PLpro yeast: 19.1%

What do the screens show for `COc1cccc(/C(O)=C2/C(=O)C(=O)N(CCN(C)C)C2c2ccc(Br)cc2)c1` (stereo not given)?
2A StopGo: 1.3%; RE007 growth inh: -3.4%; LASV entry inh: 0.5%; NS1 function inh: 5.8%; Cruzain inh Det: -3.4%; Cruzain noTriton: -1.1%; Marburg entry inh: 0.3%[46.1 µM]; SARS PLpro yeast: -4.2%

How did O=C(CCc1ccncc1)NC1CCCc2c1cnn2-c1ccc(F)cc1F (stereo not given) do in these assays?
2A StopGo: inconclusive; RE007 growth inh: 8.1%; LASV entry inh: -20.6%[46.1 µM]; NS1 function inh: 3.4%; Marburg entry inh: inconclusive; SARS PLpro yeast: 3.7%

What do the screens show for `Cc1cc(=O)[nH]c(SCC(=O)N2CCN(C(c3ccccc3)c3ccccc3)CC2)n1`?
2A StopGo: -27.4%; RE007 growth inh: -3.1%; LASV entry inh: -4.4%; NS1 function inh: -45.5%; Cruzain inh Det: 2.2%; Cruzain noTriton: 8.5%; Marburg entry inh: -5.6%; SARS PLpro yeast: -1.6%

Results for Cc1nn(-c2ccccc2)c2c1N(CCCC(=O)NCc1ccccc1)C(=O)CS2 ?
2A StopGo: -16.1%; LASV entry inh: -20.1%[46.1 µM]; Cruzain inh Det: -4.4%; Cruzain noTriton: 13.7%

What do the screens show for `O=S(=O)(NCC(O)COCc1ccco1)c1cccs1` (stereo not given)?
2A StopGo: 2.3%; RE007 growth inh: 4.7%; LASV entry inh: 13.4%; NS1 function inh: inconclusive; Cruzain inh Det: -5.3%; Cruzain noTriton: inconclusive; Marburg entry inh: -29.3%; SARS PLpro yeast: 5.6%

How did CC(C)(C)c1ccc(Cn2nnc3c(=O)[nH]c(C4CCN(C(=O)Cc5cccs5)CC4)nc32)cc1 do in these assays?
2A StopGo: inconclusive; RE007 growth inh: 2.7%; LASV entry inh: inconclusive; NS1 function inh: 7.5%; Cruzain inh Det: -4.3%; Cruzain noTriton: inconclusive; Marburg entry inh: 8.2µM*; SARS PLpro yeast: -12.1%

How did COc1ccc(C(=O)Nc2ccccc2N2CCN(C(=O)C(C)C)CC2)cc1Cl do in these assays?
2A StopGo: -24.0%; RE007 growth inh: 14.7%; LASV entry inh: inconclusive; NS1 function inh: -11.1%; Cruzain inh Det: -4.6%; Cruzain noTriton: inconclusive; Marburg entry inh: -8.6%; SARS PLpro yeast: -20.5%

How did O=C(COc1ccc(Cl)cc1)Nc1cnn(Cc2c(Cl)cccc2Cl)c1 do in these assays?
2A StopGo: 0.0%; RE007 growth inh: 7.0%; LASV entry inh: -26.8%; NS1 function inh: 3.9%; Cruzain inh Det: -1.7%; Cruzain noTriton: 7.8%; Marburg entry inh: inconclusive; SARS PLpro yeast: 9.9%

What do the screens show for `Cc1cc(NC(=O)CCC(=O)N(Cc2ccco2)C(C)(C)C(=O)NC2CCCCC2)no1`?
2A StopGo: 12.7%; RE007 growth inh: -19.0%; LASV entry inh: 0.1%; NS1 function inh: 5.3%; Cruzain inh Det: -0.3%; Cruzain noTriton: 6.6%; Marburg entry inh: -6.3%[46.1 µM]; SARS PLpro yeast: 9.9%

What do the screens show for `COc1ccc(CNC(=O)C(C)OC(=O)CN2C(=O)COc3ccccc32)cc1` (stereo not given)?
2A StopGo: -12.9%; RE007 growth inh: 2.1%; LASV entry inh: -5.8%; NS1 function inh: -11.5%; Marburg entry inh: 1.1%[46.1 µM]; SARS PLpro yeast: 2.5%

What do the screens show for `CC(=O)O[C@@H]1[C@@]2(C)O[C@H]2CC[C@]23O[C@H]2[C@H](OC3=O)C2=C(C)C(=O)O[C@@]21O`?
2A StopGo: -18.7%; RE007 growth inh: 59.5%; LASV entry inh: 0.6%; NS1 function inh: 11.1%; Cruzain inh Det: 0.1%; Cruzain noTriton: -7.1%; Marburg entry inh: -9.5%; SARS PLpro yeast: inconclusive

Results for CCn1c(SCc2nc3ccccc3[nH]2)nnc1-c1cnccn1 ?
2A StopGo: 39.2%[activator]; RE007 growth inh: 3.0%; LASV entry inh: -12.5%; NS1 function inh: -9.2%; Cruzain inh Det: -4.1%; Cruzain noTriton: -5.7%; Marburg entry inh: 13.3%; SARS PLpro yeast: 0.9%

Results for Cc1ccccc1C(=O)N1c2ccccc2OCC1C(C)(C)C (stereo not given) ?
2A StopGo: -26.5%; RE007 growth inh: -9.7%; NS1 function inh: -4.8%; SARS PLpro yeast: -0.5%

How did Nc1ccc2c3c(cccc13)CC2 do in these assays?
2A StopGo: -0.4%; RE007 growth inh: -3.3%; LASV entry inh: -18.6%; NS1 function inh: 15.2%; Cruzain inh Det: 1.5%; Cruzain noTriton: inconclusive; Marburg entry inh: inconclusive; SARS PLpro yeast: -11.7%

How did Cc1ccc(C(=O)Nc2sc(C)c(C)c2C(=O)c2ccccc2)cc1 do in these assays?
2A StopGo: -13.1%; RE007 growth inh: -14.2%; LASV entry inh: -16.3%; NS1 function inh: -1.4%; Cruzain inh Det: -5.0%; Cruzain noTriton: -6.7%; Marburg entry inh: -25.7%; SARS PLpro yeast: -4.2%

Results for COc1ccc(COC(=O)c2ccc(Cl)c(S(=O)(=O)N3CC(C)OC(C)C3)c2)cc1 (stereo not given) ?
2A StopGo: inconclusive; RE007 growth inh: 6.2%; LASV entry inh: inconclusive; Marburg entry inh: -17.4%; SARS PLpro yeast: -3.6%

How did Cc1cccc2nc(COc3ccc4ccccc4c3Br)cn12 do in these assays?
2A StopGo: 4.6%; RE007 growth inh: inconclusive; LASV entry inh: inconclusive; NS1 function inh: -37.8%; Marburg entry inh: 10µM*; SARS PLpro yeast: 2.1%

How did CC1(C)C(=O)OC(c2cccn2-c2ccc([N+](=O)[O-])cc2)C(C)(C)C1=O (stereo not given) do in these assays?
2A StopGo: inconclusive; RE007 growth inh: 0.5%; LASV entry inh: -0.1%; NS1 function inh: 7.4%; Cruzain inh Det: -3.1%; Cruzain noTriton: -6.1%; Marburg entry inh: -13.2%; SARS PLpro yeast: -15.3%

How did CC(C)C[C@H](NC(=O)N1CCn2c1nc1ccccc12)C(=O)NCCc1ccccc1 do in these assays?
2A StopGo: -11.6%; RE007 growth inh: -5.2%; NS1 function inh: -7.0%; SARS PLpro yeast: -7.3%

How did CC(=O)c1ccc(-n2c(=O)[nH]c(=O)c3c(N)c(C(=O)c4ccc(Cl)cc4)sc32)cc1 do in these assays?
2A StopGo: -20.9%; RE007 growth inh: -8.6%; NS1 function inh: 3.4%; SARS PLpro yeast: -2.0%

What do the screens show for `O=C(/C=C/c1ccccc1)NCc1ccco1`?
2A StopGo: 12.9%; RE007 growth inh: -15.4%; LASV entry inh: inconclusive; NS1 function inh: -1.6%; Marburg entry inh: inconclusive; SARS PLpro yeast: -0.6%

How did CCOc1ccc(NS(=O)(=O)c2ccc(NC(C)=O)c(OC)c2)cc1 do in these assays?
2A StopGo: 8.7%; RE007 growth inh: 31.2%; LASV entry inh: -21.7%; NS1 function inh: -2.7%; Cruzain inh Det: 0.9%; Cruzain noTriton: -7.4%; Marburg entry inh: 0.9%; SARS PLpro yeast: 1.0%
